# Calb FLC – C. albicans growth inhibition with fluconazole, primary screen, CaCi-2 strain, Alamar Blue fluorescence; C. albicans CaCi-2 (fluconazole-resistant clinical isolate) + fluconazole, 48 h; growth inhibition, % (test concentration not listed); actives 0.57% (n = 300,000);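 active = most replicates above 75%; inconclusive = exactly half above 75%; inactive = most below 75%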;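 also: all wells also contain fluconazole at 8 µg/ml as a sub-toxic cotreatment; 0% = median of DMSO wells and 100% = median of geldanamycin control wells; wells of about 8 µL received 7.5 nL stock; the first replicate is given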
# RanGTP-Impb inh – inhibitors of RanGTP-importin-beta interaction, primary screen, biochemical, FRET, CFP-Ran, YFP-importin-beta, homogeneous. cell-free CFP-Ran/YFP-importin-beta FRET ratio. actives 1.1% (n = 300,000). inhibition, % (test concentration not listed). Ran GTPase (GTP-bound) - importin-beta complex;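 active = most replicates above 15%; inconclusive = exactly half above 15%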;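 also: 0% = DMSO wells and 100% = Ran loaded with GDP instead of GTP; wells of about 40 µL received 100 nL stock; the first replicate is given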
# FGF22 binding – binders of human FGF22 protein, primary screen, FGF22 synaptogenesis inhibitor project, biophysical, thermal shift, single point. Fibroblast growth factor 22 (Homo sapiens), Q9HCT0. recombinant FGF22 thermal shift, SYPRO orange fluorescence; percent of sucrose octasulfate shift, DMSO zero. calls only at 9.99 µM. actives 1.5% (n = 340,000);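 active = melting point raised past a set limit in the mean and every replicate; inconclusive = no clear call; three in four hits are not shown here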
# Target sequence (Q9HCT0 whole entry, looked up): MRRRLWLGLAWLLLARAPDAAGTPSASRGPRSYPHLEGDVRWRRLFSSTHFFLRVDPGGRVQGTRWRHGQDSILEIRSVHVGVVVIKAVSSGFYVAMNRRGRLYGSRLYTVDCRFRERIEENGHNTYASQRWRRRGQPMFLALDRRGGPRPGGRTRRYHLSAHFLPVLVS
# ALR H2O2 inh – inhibitors of human ALR sulfhydryl oxidase, primary screen, biochemical, H2O2 detection, HRP-luminol luminescence, single point; purified ALR, DTT oxidation; actives 3.8% (n = 290,000); FAD-linked sulfhydryl oxidase ALR (Homo sapiens), P55789; inhibition, % (test concentration not listed);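 active = mean and each replicate at 75% or more; inconclusive = only one of the two met; inactive = neither met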;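 also: stock transfer was 7.5 nL into about 7.5 µL; 0% = neutral wells and 100% = wells with inactivated enzyme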
# Target sequence (P55789 whole entry, looked up): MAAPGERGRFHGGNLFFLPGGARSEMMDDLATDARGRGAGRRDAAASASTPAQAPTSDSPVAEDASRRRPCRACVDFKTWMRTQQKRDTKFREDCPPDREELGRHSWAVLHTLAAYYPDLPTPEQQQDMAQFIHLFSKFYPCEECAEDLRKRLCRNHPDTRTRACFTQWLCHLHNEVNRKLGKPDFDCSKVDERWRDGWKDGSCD
# MLL AF4-AF9 inh – inhibitors of AF4 peptide binding to AF9, primary screen, biochemical, AlphaScreen, biotin-AF4 peptide, FLAG-AF9, single point; inhibition, % at 10 µM; actives 0.47% (n = 350,000); AID 651704, 2012;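 active = every replicate reaching a set inhibition limit, whatever the replicate mean, cut at about 25% in these data; inconclusive = mean inhibition reaches that limit but some replicates miss it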;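 also: 0% = plate neutral control median and 100% = total signal loss; the record names both 10 and 1 µM as test concentration; the first replicate is given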
# Target sequence (P42568 whole entry, looked up): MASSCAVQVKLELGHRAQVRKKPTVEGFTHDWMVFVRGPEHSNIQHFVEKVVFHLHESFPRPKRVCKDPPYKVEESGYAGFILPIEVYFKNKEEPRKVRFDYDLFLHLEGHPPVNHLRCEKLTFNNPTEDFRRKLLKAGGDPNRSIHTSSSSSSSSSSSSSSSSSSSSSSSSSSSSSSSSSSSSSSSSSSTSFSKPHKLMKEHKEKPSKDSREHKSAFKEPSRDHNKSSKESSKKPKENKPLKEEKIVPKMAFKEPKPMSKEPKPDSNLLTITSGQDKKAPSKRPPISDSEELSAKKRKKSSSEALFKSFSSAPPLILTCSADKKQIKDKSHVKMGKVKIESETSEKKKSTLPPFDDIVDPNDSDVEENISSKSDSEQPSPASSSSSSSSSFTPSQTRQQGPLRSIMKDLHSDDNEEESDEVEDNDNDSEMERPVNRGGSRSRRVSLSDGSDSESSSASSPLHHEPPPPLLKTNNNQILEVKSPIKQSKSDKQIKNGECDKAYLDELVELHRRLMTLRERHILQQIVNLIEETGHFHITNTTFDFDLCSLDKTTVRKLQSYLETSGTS
# T cruzi inh – inhibitors of intracellular T. cruzi growth, primary screen, luminescence, NIH3T3 host cells; T. cruzi beta-gal in NIH3T3, 90 h; inhibition, % (test concentration not listed); actives 1.4% (n = 300,000);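 active = mean inhibition across valid replicates above about 55%, limit read from the data; inconclusive = mean below that limit but half or more replicates reach it; inactive = mean below it, under half of replicates reach it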;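 also: signal also drops with host cell toxicity which is not excluded here; 0% = plate median of DMSO wells and 100% = zero luminescence signal; higher percent means less beta-gal luminescence so fewer parasites; stock transfer was 50 nL into about 50 µL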
# Ecoli rRNA inh – reduced GFP signal of wild-type E. coli, primary screen, bacterial rRNA inhibitor project, GFP/RFP fluorescence, OD600, single point; E. coli WT GFP vs humanized-ribosome RFP mutants, 24 h; active compounds read low; DMSO median 0, no signal -100; GFP signal change (wild-type ribosome), % (test concentration not listed); actives 1.6% (n = 350,000);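 active = significant combined selectivity score with lowered wild-type GFP, culture density cut under 30%, mutant RFP and density less affected; inactive = any of these conditions unmet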; also: one replicate is shown; some compounds called inactive have numbers as strong as hits
# Beta cell apopt – inhibitors of cytokine-induced beta cell apoptosis, primary screen, luminescence | protection from apoptosis, % (concentration not given with the values) | INS-1E cytokine-induced death, ATP luminescence, 48 h; percent of positive-control rescue, neutral wells zero | actives 0.8% (n = 300,000);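 active = all replicates at 75% or more, or half of them and the mean; inconclusive = half reach 75% but not the mean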;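 also: 0% = cytokine-treated negative control wells and 100% = positive control rescue; higher means more ATP so stronger rescue from cytokine killing; wells of about 40 µL received 100 nL stock; the first replicate is given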
# Ecoli rRNA inh OD600 – also measured in Ecoli rRNA inh; calls as there; OD600 change, %; measured here: OD600 growth;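 optical density of the mix in the first replicate; 0 = DMSO median and -100 = no signal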
# Ecoli rRNA inh RFP – second read-out of Ecoli rRNA inh, no call of its own (marks repeat the call); RFP signal change, %; measured here: RFP humanized mutant strains;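 first replicate; 0 = DMSO median and -100 = no signal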
# * hit, by the source's call; i = inactive; ? = inconclusive; · = no result given.
SMILES,Calb FLC,RanGTP-Impb inh,FGF22 binding,ALR H2O2 inh,MLL AF4-AF9 inh,T cruzi inh,Ecoli rRNA inh,Ecoli rRNA inh OD600,Ecoli rRNA inh RFP,Beta cell apopt
Cn1c(SCc2cccc(Br)c2)nc2ccccc2c1=O,-1,-0.3,i,-8,-19,1,-4,4,-4.5,13
CC(=O)c1cccc(NC(=O)CCN2C(=O)C3C4CCC(C4)C3C2=O)c1 (stereo not drawn),3,3.8,i,1,-1.1,-12,6,15,-0.4,2
CC(C)c1ccc(NC(=O)CSc2nc(-c3ccccc3F)nc3nc[nH]c23)cc1,0,1.1,i,-7,-0.6,0,2,7,-4.0,-2
Cc1ccccc1-c1nc(CS(=O)CC(=O)NCc2ccccn2)c(C)o1 (stereo not drawn),-4,-2.1,i,98*,-3.0,14,3,0,-0.2,-7
CCOC(=O)CSc1nc(C(C)C)nc2sc(C)c(C)c12,-8,-2.4,i,5,-7.6,14,-22,-23,-2.6,-2
CC(C)(C)OC(=O)NCCCC[C@@H](C(=O)NCCCCCCCCCCC(=O)N1CCN(C(=O)OC(C)(C)C)CC1)n1cc(CCO)nn1,3,0.4,i,-5,-4.0,25,-2,1,-1.5,21
CCC(=O)Nc1ccc(NC(=O)CSc2nnnn2-c2ccc3c(c2)OCCO3)cc1,-6,-0.8,i,-2,-2.6,43,14,22,4.9,4
CC(=O)Nc1ccc(S(=O)(=O)N2CCc3c(Cl)cccc3C2)cc1,-5,-1.2,i,-2,-4.9,10,7,14,1.3,-3
O=P1(Nn2cnnc2)C=C(c2ccccc2)OC(c2ccccc2)=C1,9,7.6,·,-4,·,-1,·,·,·,-3
CC1CN(S(=O)(=O)c2cccc(C(=O)OCC(=O)NCc3ccccc3)c2)CC(C)O1 (stereo not drawn),·,·,i,0,2.9,·,-3,-9,2.9,1
COCCCNC(=O)C(=O)NC1CCCCC1C (stereo not drawn),11,-1.5,i,-2,-1.6,-20,13,10,1.8,-3
C#CCN1C(=O)C(O)(CC(=O)/C=C/C=C/c2ccccc2)c2ccccc21 (stereo not drawn),-26,-3.7,i,5,1.2,-6,-19,-16,0.6,-4
O=C(Nc1ncccc1O)c1ccc(Cl)c(S(=O)(=O)N2CCCCC2)c1,-2,-0.6,i,56,-1.5,2,5,-3,-0.7,-1
O=[N+]([O-])c1ccccc1S(=O)(=O)Oc1ccc(C(=S)N2CCOCC2)cc1,-3,3.0,i,-10,4.0,-18,2,-3,-3.1,-4
COc1cccc(CNC(=O)CCNS(=O)(=O)c2cccc3nonc23)c1,3,0.1,i,-1,3.1,-7,-5,-5,4.5,-8
O=c1ncn(-c2cccc(Cl)c2)c2ccccc12,-3,-1.3,i,-3,-2.8,-13,13,1,-3.8,-7
NC(=S)N/N=C/c1ccc(-c2ccccc2)o1,9,1.6,i,98*,13,16,3,4,0.7,1
CCC(CO)NC(=O)c1cccc(S(=O)(=O)N2c3ccccc3CC2C)c1 (stereo not drawn),-3,9.6,·,0,·,-14,·,·,·,-1
Cc1cc(S(=O)(=O)N2CCCC2)ccc1OCC(=O)N1CCCCC1,3,-10,i,-3,-0.4,15,8,6,-2.2,0
COc1ccc(C(CNC(=O)c2cccc(NS(=O)(=O)c3ccc(C)c(F)c3)c2)N(C)C)cc1 (stereo not drawn),-9,-3.3,i,-3,-21,9,3,0,1.9,0
O=C(CNC(=S)N(Cc1ccccc1)Cc1ccccc1F)NCCc1ccc(Cl)cc1,3,-4.7,i,-22,-2.6,85*,-13,-17,31,13
CCC(=O)N1c2ccc(S(=O)(=O)N3CCOCC3)cc2CC1C (stereo not drawn),25,0.9,i,2,-3.3,-9,8,10,-2.5,-1
Nc1ccccc1SC1CC(=O)N(Cc2ccccc2)C1=O (stereo not drawn),-7,2.9,·,-1,-13,-1,-34,-42,-8.7,-3
COc1cc(NC(=O)NCC2CCN(Cc3ccc(C)cc3)CC2)cc(OC)c1OC,-11,0.5,i,1,6.4,24,5,13,-1.0,-2
CCCn1nc(C(=O)OCC(=O)Nc2ccc(C)cc2)c2ccccc2c1=O,·,·,i,-1,-2.2,·,-6,-9,-3.1,-5
C/C(=N/NC(=O)c1ccc2c(c1)OCO2)c1cccc(NC(=O)C(C)(C)C)c1,-1,7.6,·,-7,·,-3,·,·,·,-4
Cc1ccc(-c2nn(-c3ccccc3)cc2C(=O)NCCCN2CCOCC2)cc1,-11,2.5,i,-5,2.4,14,6,5,1.7,1
CCOC(=O)n1c(SCC(=O)N(CC)CC)nc2ccccc21,·,?,·,2,·,6,·,·,·,-2
CC1(c2ccc(Cl)cc2)NC(=O)N(CC(=O)NCCC2=CCCCC2)C1=O (stereo not drawn),·,·,i,1,-3.8,·,-1,8,0.7,7
Fc1cc(Br)ccc1Nc1nc2ccccc2n2nnnc12,1,?,i,22,7.3,1,22,21,4.1,·

# Single values from the entries so far:
# Result for `CCCn1nc(C(=O)OCC(=O)Nc2ccc(C)cc2)c2ccccc2c1=O` in MLL AF4-AF9 inh: -2.2
# Result for `CCC(=O)N1c2ccc(S(=O)(=O)N3CCOCC3)cc2CC1C` (stereo not drawn) in Calb FLC: 25

# The listing continues.
SMILES,Calb FLC,RanGTP-Impb inh,FGF22 binding,ALR H2O2 inh,MLL AF4-AF9 inh,T cruzi inh,Ecoli rRNA inh,Ecoli rRNA inh OD600,Ecoli rRNA inh RFP,Beta cell apopt
CCc1ccccc1NC(=S)NN,1,-1.8,i,54,-1.8,-15,-5,-16,2.9,7
O=C(c1cc(-c2ccc(Cl)c(Cl)c2)on1)N1CCN(c2ccccc2)CC1,0,1.3,·,-10,·,-30,·,·,·,0
O=C(O)CCN1C(=O)/C(=C\c2cccc(OCc3ccccc3)c2)SC1=S,9,-1.4,i,-3,-5.2,-1,-3,-9,4.7,-2
CCc1ccc2c(COC(=O)c3n[nH]c4ccccc34)cc(=O)oc2c1,6,1.1,·,·,·,10,·,·,·,-1
CCc1ccc(NC(=O)CN2C(=O)COc3ccc(S(=O)(=O)N4CCCC4)cc32)cc1,-14,-0.7,i,-3,-4.2,-14,-8,-3,4.3,2
N/C(=N\OC(=O)c1ccc(F)cc1)c1ccccc1,3,-0.9,·,-5,·,-2,·,·,·,-4
Cc1cc(=O)n2c(n1)SCOC2,-3,-0.7,i,-4,1.6,-18,-4,-5,-3.4,-4
COc1cccc(NC(=O)CNc2cc(S(=O)(=O)N3CCOCC3)ccc2N2CCCC2)c1,·,·,i,32,7.0,·,-2,-17,5.8,-2
O=C(/C=C/c1cccnc1)c1ccccc1O,-9,2.6,i,20,-3.6,4,7,13,-1.3,3
COc1cccc(NC(C(=O)Nc2cccc(C(C)=O)c2)c2ccccc2)c1 (stereo not drawn),21,6.7,·,-3,·,5,·,·,·,2
O=C(Nc1ccccc1F)c1ccccc1-c1ccc(C(F)(F)F)cc1,0,2.3,·,-4,·,-4,·,·,·,3
CCn1nnnc1-c1ccc(OC)c(S(=O)(=O)NCc2ccccc2)c1,10,1.1,·,-12,·,-8,·,·,·,-2
Cc1nc2cc(C(F)(F)F)ccc2n1CCNc1nc(-c2ccc([N+](=O)[O-])c(Cl)c2)cs1,-3,1.0,i,11,1.3,9,5,4,-8.4,2
Cc1ccc(CNC(=O)C2(C)Oc3ccccc3NC2=O)cc1 (stereo not drawn),0,5.3,·,0,·,5,·,·,·,-1
COc1ccc(NC(=S)NCC(c2ccco2)N2CCCC2)cc1 (stereo not drawn),-14,0.7,i,1,8.2,0,5,7,2.3,-2
Fc1ccccc1CCNc1nnnn1-c1ccccc1,-3,-1.7,·,-2,·,-9,·,·,·,12
COc1ccc(-c2csc(Nc3ccc(S(N)(=O)=O)cc3)n2)cc1,59,3.7,·,14,·,-17,·,·,·,·
COc1cccc(CN(C)C(=O)CCNC(=O)c2ccco2)c1,·,·,i,·,-1.8,·,10,13,-2.0,-4
Cc1cc(C)nc(NC(=O)c2ccc([N+](=O)[O-])c(C)c2)n1,19,-0.5,i,-7,2.1,-8,3,10,1.9,·
Cc1cc(OC(C)C(=O)NC(Cc2c[nH]c3ccc(O)cc23)C(=O)O)c2c(C)c(C)c(=O)oc2c1 (stereo not drawn),8,4.2,i,-3,1.9,2,11,6,-1.9,-4
COC(=O)NNC(=O)c1ccccc1C,-19,0.7,·,3,·,-23,·,·,·,-7
Cc1ccc(CNC(=O)c2cc(C)nn2-c2ccccc2)cc1,-7,?,i,-30,-12,-4,-10,-6,-1.2,-1
C/C(=N/OC(=O)c1ccccc1)c1oc(C)nc1C,3,-2.7,i,·,·,-25,3,-4,-1.9,2
CCc1ccc(S(=O)(=O)NCCc2cn3cccc(C)c3n2)s1,·,·,i,-9,-0.2,1,0,-5,-1.1,-3
Cc1ccc(O)c(CNc2cccc3cccnc23)c1,1,3.2,i,·,2.5,3,-5,-10,1.5,102*
O=C(CO/N=C1\CCCc2nonc21)Nc1ccccc1Cl,20,1.9,·,·,·,-3,·,·,·,-8
CCCn1nnnc1NCc1ccccc1OCC,-3,1.2,i,-3,3.2,-5,11,5,0.9,2
CCOC(Cn1c(SCC(=O)Nc2cc(C)on2)nc2ccccc2c1=O)OCC,-2,2.0,i,-3,-3.0,-6,2,18,-2.6,2
O=C(NCc1ccc(F)cc1)c1ccc(S(=O)(=O)N2CCCCC2)cc1,·,·,i,13,3.0,·,14,18,-1.0,-4
O=C(CN1C(=O)C2CC=CCC2C1=O)Nc1nc2ccccc2[nH]1 (stereo not drawn),-16,0.3,·,0,·,-24,·,·,·,0
COc1ccc(N2C(=O)CC(NCc3cccc(F)c3)C2=O)cc1 (stereo not drawn),·,0.8,·,4,·,-5,·,·,·,-5
Cc1cc(C(=O)Nc2cccc(C)c2C)n(-c2ccccc2)n1,1,-3.6,i,-3,1.0,-1,-4,-3,-5.9,-8
Cc1cc(NS(=O)(=O)c2ccc(NC(=O)CSc3nc4ncc(Cl)cc4[nH]3)cc2)nc(C)n1,-9,3.9,i,100*,-6.9,-13,9,5,-0.6,-2
CCCN(CCC)S(=O)(=O)c1ccc(C(=O)O)cc1,·,-0.6,i,0,-5.9,4,-9,-18,-5.6,-11
COC(=O)C1=C(N)c2c(F)cccc2C1(C#N)c1ccc(F)cc1 (stereo not drawn),-4,5.3,·,3,·,1,·,·,·,-8
Cc1ccc(C(=O)NC(=S)NNC(=O)COc2ccccc2C)cc1,-28,-0.1,i,·,-3.0,32,-56,-79,-25,-4
CCOc1ccccc1NC(=O)CCn1nc(C)c(S(=O)(=O)N2CCCCC2)c1C,0,1.5,i,-8,1.5,-8,4,3,1.3,-2
Cc1ccccc1OCc1nnc(SCC(=O)Nc2ccc3c(c2)OCO3)n1C,-2,-1.6,·,-4,·,-6,5,4,-1.4,8

# Screening results (PubChem)

# The list is partial. The share of hits here may be higher or lower than overall.
